CDC25B CDK2 inh – human CDC25B-CDK2/CyclinA binding inhibition | P30305+P24941 | HTRF CDC25B-CDK2/CyclinA binding, anti-His/anti-Flag; active compounds read high | z-score (test concentration not listed) | 94,000 tested, 0.72% active;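 note: score is relative to mean and SD of negative controls; strong numbers were not always called active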
HIV TAR-Tat – HIV-1 TAR-Tat binding disruption. 100,000 tested, 0.6% active. HIV-1 TAR RNA, Tat peptide displacement FRET; active compounds read high. AID 1259389. z-score (test concentration not listed);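 note: score is relative to mean and SD of negative controls; some compounds called inactive have numbers as strong as hits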
The depositor's hits bear a star; nt = no result given.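 Rule for the calls: active = z-score from 3 up in half or more of its runs; inactive = the rest.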

SMILES	CDC25B CDK2 inh	HIV TAR-Tat
O=C(Nc1noc2ccccc12)C1CCCCC1	-1.6	-1.8
CC1CCN(c2oc(COc3ccccc3Cl)nc2C#N)CC1	-3.1	0.69
Cc1cc(NC(=O)CSC2=Nc3ccccc3C3=NC(c4ccccc4)C(=O)N23)n[nH]1 (stereo not drawn)	-1.4	nt
CC(=O)N1c2ccc(S(=O)(=O)N3CCC(C(=O)NCC4CCCO4)CC3)cc2CC1C (stereo not drawn)	nt	1.3
CCCCC(=O)Nc1ccc2[nH]c(=O)oc2c1	nt	1.6
Cc1ccccc1-n1nnc(-c2nc(-c3ccccc3F)no2)c1N	nt	2.1
O=C(CCC(=O)N1Cc2cccn2-c2ccccc21)N1CCN(c2ccccc2)CC1	nt	1.2
COc1ccc(C(=O)C2C(c3ccccc3OC)NC(=O)NC2(O)C(F)(F)F)cc1 (stereo not drawn)	-1.2	nt
O=C(CCC1CCCC1)Nc1c2c(nn1-c1cccc(Cl)c1)CS(=O)(=O)C2	nt	1.2
Cn1c(=O)oc2cc(S(=O)(=O)NCc3ccccn3)ccc21	-0.95	-1.2
CCOC(=O)c1nc(Nc2ccc(OC)cc2)c2c(C)noc2n1	nt	1.9
CSc1cccc(NC(=O)C(=O)NCc2ccccc2)c1	-0.96	nt
Cn1ncc2c(=O)n(Cc3cccc(Cl)c3)cnc21	0.83	0.6
COc1ccc(C(=O)CSc2nc3c(cc2C#N)CCC3)cc1	0.55	1.4
O=S(=O)(c1cc(-c2noc(C3CC3)n2)cs1)N1CCCC1	nt	1.6
C=CCn1c(COc2ccccc2C)n[nH]c1=S	-0.02	nt
Cc1ccc(Nc2c(C)c(C)nc3ncnn23)cc1	nt	-0.23
O=C(CSc1ccc2nnc(CCNS(=O)(=O)c3ccccc3)n2n1)N1CCCC1	nt	0.98
NCCCNCCCCNC(=O)C(NC(=O)CCCCCN=C(N)N)c1ccc(Br)cc1 (stereo not drawn)	nt	1.4
O=C(Nc1ccccc1)N1CCCC1c1ccco1 (stereo not drawn)	0.62	0.18
COc1ccc(N2CCN(S(=O)(=O)c3c(C)nc4sc5ccccc5n4c3=O)CC2)cc1	nt	0.48
Cc1cc2c(cc1S(=O)(=O)N1CC(C)CC(C)C1)OCC(=O)N2 (stereo not drawn)	nt	3.3
Cc1cc(C)n(Cc2ccc(C(=O)NCCc3cccs3)o2)n1	nt	0.18
CCc1ccc(C2C3=C(Nc4c2c(=O)[nH]c(=O)n4CCOC)c2ccccc2C3=O)cc1 (stereo not drawn)	-5.4	-4.5
COc1cc(C(C)(C)C)c(OC)cc1C(C)(C)C	-1.7	nt
CCN(CC)C(=O)c1c(C)oc2ncnc(N3CCOCC3)c12	nt	1
CCOC(=O)N1CCN(c2c(N3CCC(C)CC3)c(=O)c2=O)CC1	-2.1	-0.29
O=c1[nH]c2ccc(NCc3ccc(-c4ccc(Cl)cc4)o3)cc2[nH]1	10*	-3.1
C=CCN1C(=O)/C(=C2\SC(=S)N(CCCC)C2=O)c2ccccc21	-2.9	nt
CCCn1nnnc1NCc1ccc(F)cc1	-0.63	0.41
OCc1cnc(SCc2ccccc2)n1Cc1ccc(Cl)cc1	nt	1.7
CN(C)c1ccc(NC(=O)CSc2nc(N)c(C(=O)Nc3ccc(N(C)C)cc3)s2)cc1	nt	1.7
C=CCN(C(=O)CSc1nncn2c1cc1occc12)c1ccccc1	nt	1.4
O=C(O)c1ncoc1-c1cccc(Cl)c1	-2.5	nt
COc1ccc(OCc2nc(C#N)c(N3CCN(c4ccccc4)CC3)o2)cc1	1.5	1.1
Cc1cc2c(cc1S(=O)(=O)NC1CCCC1)n(C)c(=O)c(=O)n2C	nt	2.7
COc1ccc(OC)c(CC2C(=O)Nc3ccc(Br)cc32)c1 (stereo not drawn)	-0.3	1.8
Cc1ccc(NCc2c(CO)cnc(C)c2O)cc1Cl	nt	0.95
CCCCSc1nc2c(c(=O)[nH]1)C(c1ccc(F)cc1)C1=C(CC(C)(C)CC1=O)N2 (stereo not drawn)	-1.3	-0.37
O=C(CCc1ccccc1)Nc1nnc2n1CCCS2	nt	0.58
O=C(Nc1nnc(SCc2cc(=O)n3ccsc3n2)s1)c1ccc(Cl)cc1	nt	-0.44
O=c1c(N2CCN(C/C=C/c3ccccc3)CC2)csc2ccc(F)cc12	nt	-3.1
CC(C)(C)C(CCC(=O)O)CC(=O)O (stereo not drawn)	-3.4	-1.2
COc1ccc(CNCCCSc2nnnn2C)cc1	-1.5	1.3
CCN(CC)S(=O)(=O)c1c(C)nn(S(C)(=O)=O)c1C	nt	1.7
CN(C)c1oc(/C=C/c2cccs2)nc1C#N	-0.62	1.1
O=C(COc1ccccc1SCc1ccc(Cl)cc1)NNC(=O)c1ccc(Cl)cc1	-1.6	nt
CC(C)c1ccc2nc(-c3cccc(N)c3)ccc2c1	nt	-2.5
Cc1nn(C)c2c1c(C(F)(F)F)cc(=O)n2CCOc1ccccc1	nt	-0.14
N#CC(=C1SCCCCS1)S(=O)(=O)c1ccccc1	-0.5	nt

New compounds follow:
SMILES	CDC25B CDK2 inh	HIV TAR-Tat
CC(=O)n1c2ccccc2c2c(-c3ccccc3)c(N3CCOCC3)sc21	-0.2	0.41
CCOC(=O)c1cnn(C)c1NC(=O)c1ccc(Cl)cc1Cl	-1.5	nt
N#C/C(=C\c1ccc(N2CCOCC2)cc1)c1ccc([N+](=O)[O-])cc1	-1.6	nt
CN(C)CCn1c2c(c(SCC(=O)Nc3ccc(Cl)cc3)nc1=O)CCC2	nt	1.3
COc1ccc(S(=O)(=O)n2nc(-c3ccc(C(C)(C)C)cc3)cc2N)cc1	-0.84	nt
CCOC(=O)c1c(NC(C)=O)c2c(C)c(C)sc2n1CC(=O)N1CCCCC1CC (stereo not drawn)	nt	2.1
Cc1cc(=O)n2[nH]c(-c3ccccc3)c(-c3ccccc3)c2n1	-1.6	nt
O=C1c2cccnc2C(=O)N1Cc1ccc(S(=O)(=O)N2CCc3ccccc3C2)cc1	nt	-1.2
O=C(c1ccccc1F)N(Cc1cccc(F)c1)C1CCS(=O)(=O)C1 (stereo not drawn)	-1.3	0.79
COc1ccc(/C=C/C2=Nc3ccccc3NC(C)(C)C2)cc1OC	-1.1	0.56
Cn1c(=O)c2c(-c3ccccc3)n3c(c2n(C)c1=O)C(c1c[nH]c2ccccc12)OCC3 (stereo not drawn)	0.35	0.93
Cc1cccn2cc(-c3ccc(NS(=O)(=O)c4ccccc4)cc3)nc12	-1.2	1.5
Cc1noc2ncnc(N3CCc4ccccc4C3)c12	nt	0.37
CCc1nn(CC(=O)NCCCN2CCCC2=O)c(=O)c2cc3sccc3n12	-0.37	-0.05
C(=C\c1ccccc1)/CN1CCN(C/C=C/c2ccccc2)CC1	0.08	-0.41
Cc1ccc(N2C(=O)C3N=NN(CC(=O)N4N=C(c5ccccc5)CC4c4ccccc4)C3C2=O)cc1 (stereo not drawn)	-1.1	-0.26
CCCCSC1=C(C#N)C(=O)NC(c2ccc(N(C)C)cc2)S1 (stereo not drawn)	-1.9	2.1
Cc1ccc(-c2cn3c4c(=O)n(C)c(=O)n(C)c4nc3n2Cc2ccc(F)cc2)cc1	0.63	-2.3
CCOc1ccc(C2C3=C(CC(C)(C)CC3=O)Nc3nc(N)[nH]c(=O)c32)cc1 (stereo not drawn)	1.7	0.1
CC1CCCC(NC(=O)CCCN2C(=O)CSc3ncccc32)C1C (stereo not drawn)	0.33	1.3
COc1cc(OC)c(NC(=O)C2CCCN(S(=O)(=O)N3CCOCC3)C2)cc1Cl (stereo not drawn)	nt	0.09
O=C(Nc1c(-c2ccccc2)c2cc(Br)ccc2[nH]c1=O)c1ccccc1Cl	-8.2	-0.69
CCCCN(CCCC)S(=O)(=O)c1ccc(-c2ccc(=O)[nH]n2)o1	nt	1.6
CC1Sc2ccc(S(=O)(=O)CCC(=O)Nc3ccc(F)c(Cl)c3)cc2NC1=O (stereo not drawn)	nt	3.2
Cc1nc(SCc2ccc(C(F)(F)F)cc2)c2c(=O)n(C)c(=O)n(C)c2n1	-0.43	nt
CSc1ccc(C2CC(=O)Nc3n[nH]c(-c4ccc(Cl)cc4)c32)cc1 (stereo not drawn)	0.31	-2.1
COc1ccc(NC(=O)CSc2nn3c(=O)c(C(C)(C)C)nnc3s2)cc1OC	nt	1
CC(C)NC(=O)c1sc(=S)n2c1[nH]c(=O)c1ccc(C(=O)NCCCN3CCCC3=O)cc12	nt	8.5*
CSc1sc(C(=O)OC(C)C)c2c1C(=O)CC(C)(C)C2	-0.49	nt
CC(C)n1cnc2nc(CSc3ccc(NC(=O)C4CCCCC4)cc3)cc(=O)n21	-2.8	0.28
CCOCCCNC(=O)C1CCN(c2ncnc3c2nc2n3CCCCC2)CC1	nt	0.58
Cn1c(=O)oc2cc(NS(C)(=O)=O)ccc21	nt	-0.06
OCCN1CCN(c2ncnc3c2cnn3-c2ccc(Cl)cc2)CC1	nt	2.1
COc1ccc(OC)c(NC(=O)C(C)Oc2nsnc2N2CCOCC2)c1 (stereo not drawn)	nt	0.36
COc1cc(C2CC(=O)NC3=C2C(=O)CC(C)(C)C3)ccc1OC(C)C (stereo not drawn)	0.57	0.98
CCOC(=O)C1CCN(S(=O)(=O)c2ccc(-c3cc(C)no3)s2)CC1	nt	0.45
CCOC(=O)c1cc(C#N)c(=O)[nH]c1C(F)(F)F	-0.49	nt
CCc1cccc(C)c1Nc1c(-c2cccs2)nc2cnccn12	0.51	-3
COc1ccc(N2CCN(c3ncnc4c3cnn4-c3ccc(OC)cc3)CC2)cc1	nt	0.45
CN(CC(=O)Nc1nc2ccc(Cl)cc2s1)S(=O)(=O)c1ccc2c(c1)CCC(=O)N2	1.1	nt
O=C(Nc1ccccc1)NC1CCS(=O)(=O)C1 (stereo not drawn)	0.45	0.93
Cc1c(CNCC2CCCO2)c(C(=O)O)c(C)n1Cc1ccc(Cl)cc1 (stereo not drawn)	nt	0.54
CCCCNc1nc(-c2ccccc2F)no1	nt	1.3
Cc1ccc(-c2nc(CSCC(=O)NC3CC3)no2)cc1	nt	0.42
O=C(CSc1nnc2sc3ccccc3n12)N1CCCc2ccccc21	-0.73	-0.54
Cc1cccc(-c2cc(C(=O)N3CCN(C/C=C/c4ccccc4)CC3)c3ccccc3n2)c1	-0.42	nt
COCCCNC(=O)CSc1nc(-c2ccc(OC)cc2)nc2cc(=O)[nH]n12	nt	-0.11
O=C(Nc1ccc(Cl)cc1)c1nn2c(c1Cl)NC(c1ccco1)CC2C(F)(F)F (stereo not drawn)	-1.1	0.37
Cc1cccc(-c2nc(N)nc(N)n2)c1	-0.11	nt
Cc1ccc(-c2ccc3ccccc3n2)cc1	0	nt

Other records:
SMILES	CDC25B CDK2 inh	HIV TAR-Tat
COc1cc(OC)c(NS(=O)(=O)c2ccc3[nH]c(=O)ccc3c2)cc1Cl	nt	3.2
CCCCCSc1nnc2c(n1)OC(C)N(C(C)=O)c1ccccc1-2 (stereo not drawn)	0.68	1.6
Cc1cc(=O)n2nc(-c3cccs3)nc2n1CC(=O)N1CCCCC1C (stereo not drawn)	-0.46	0.98
COC(=O)c1sccc1N/N=C1\C(=O)c2ccccc2N(C)S1(=O)=O	-0.36	nt
CCCCSc1nc2n(n1)C(c1ccc(Cl)cc1)C1=C(CCCC1=O)N2 (stereo not drawn)	-1.1	-0.85
COc1ccc(Br)cc1CN1C(=O)c2ccccc2C1C(=O)NCC1CCCO1 (stereo not drawn)	-1.3	nt
CC1CC(C)CN(C(=O)c2cc3sc(Cl)cc3n2C)C1 (stereo not drawn)	-1.6	nt
O=C(NC1CCCc2ccccc21)c1ccc(CSc2nc3ccncc3[nH]2)cc1 (stereo not drawn)	1.2	-1.3
Cc1nn(CC(=O)NCCN2CCOCC2)c(=O)c2cc3occc3n12	0.27	1.5
CCOc1ccc(S(=O)(=O)n2cc(C)nc2CC)cc1	-0.99	0.79
O=C1c2cccnc2C(Nc2cc(F)ccc2F)N1Cc1ccccc1 (stereo not drawn)	nt	1.7
C=CCNC(=O)c1oc2c(c1C)-c1nc(C)sc1CC2	nt	0.2
Cc1nnc2ccc(NCCCc3ccccc3)nn12	0.28	0.46
Cn1c(=O)oc2cc(S(=O)(=O)N3CCCC(C(=O)NCCC4=CCCCC4)C3)ccc21 (stereo not drawn)	-0.39	0.27
Cc1cc2nc(-c3ccccn3)cc(C(F)(F)F)n2n1	-0.5	nt
CC(=O)Nc1cc(N2CC(C)CC(C)C2)c(F)cc1[N+](=O)[O-] (stereo not drawn)	-0.7	nt

Screens as filed in PubChem BioAssay.
